High-throughput results (PubChem)
miR-21 reporter – raises the signal of a miR-21 reporter. HeLa miR-21 FLuc reporter, luciferase, 48 h. Potency, µM (series often up to 38.3 µM), without a hit: at the top dose reporter change, positive = more light. 340,000 tested, under 10 active. AID 2288; active = well fitted rising curve with a large enough effect; inconclusive = small, poorly fitted or top-dose-only effect; inactive = no such curve, though single readings can be large or run the other way;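 note: % of control where 0% means no effect; miR-21 action dims this reporter so a rising signal means less miR-21 action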
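HeLa cells stably expressing CMV-driven firefly luciferase with a downstream miR-21 binding sequence, endogenously expressing miR-21, were treated with titrations (up to about 40uM final) for 48 hours at 37 degree Celsius. Luciferase luminescence was read after lysis.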
Rango complex inh – inhibitors of Rango-importin beta complex formation | Rango CFP/YFP FRET sensor + importin beta, 45 min | Q14974 | AID 540263 | 340,000 compounds, 0.031% hits | Potency, µM (series often up to 92.2 µM), without a hit: at the top dose inhibition of complex formation; active = rising FRET ratio curve, often small or poorly fitted; inconclusive = mostly compound fluorescence or quenching in the first reads; inactive = flat curves in all reads;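 note: potency is the fitted concentration of half-maximal effect; 0% = DMSO wells and 100% = buffer wells lacking importin beta; nearly all actives have a fitted effect of over 15% in size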
Target sequence (Q14974 whole entry, looked up): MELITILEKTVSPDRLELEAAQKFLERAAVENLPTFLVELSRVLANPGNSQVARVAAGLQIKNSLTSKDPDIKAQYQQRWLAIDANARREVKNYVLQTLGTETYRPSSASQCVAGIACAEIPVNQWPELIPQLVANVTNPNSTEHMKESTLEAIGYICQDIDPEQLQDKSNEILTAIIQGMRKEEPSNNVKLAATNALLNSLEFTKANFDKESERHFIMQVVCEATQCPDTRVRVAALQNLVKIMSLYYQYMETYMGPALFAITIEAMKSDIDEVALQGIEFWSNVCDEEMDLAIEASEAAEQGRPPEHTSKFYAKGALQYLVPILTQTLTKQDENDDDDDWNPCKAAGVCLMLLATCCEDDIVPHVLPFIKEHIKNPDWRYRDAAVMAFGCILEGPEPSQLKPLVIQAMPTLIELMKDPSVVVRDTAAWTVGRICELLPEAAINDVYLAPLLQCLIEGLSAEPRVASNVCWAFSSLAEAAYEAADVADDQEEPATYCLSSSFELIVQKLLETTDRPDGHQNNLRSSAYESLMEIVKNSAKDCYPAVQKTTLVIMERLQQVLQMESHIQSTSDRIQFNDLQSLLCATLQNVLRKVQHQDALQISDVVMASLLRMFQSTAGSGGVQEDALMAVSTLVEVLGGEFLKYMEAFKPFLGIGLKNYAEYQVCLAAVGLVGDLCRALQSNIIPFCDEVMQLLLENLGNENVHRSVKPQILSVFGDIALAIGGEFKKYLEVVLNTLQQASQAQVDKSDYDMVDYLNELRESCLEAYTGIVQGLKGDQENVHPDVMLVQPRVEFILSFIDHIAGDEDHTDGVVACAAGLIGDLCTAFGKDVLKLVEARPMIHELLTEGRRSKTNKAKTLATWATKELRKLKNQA
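FRET biosensor Rango (snurportin 1 IBB between N-terminal EYFP and C-terminal Cerulean), 50 nM in PBS/1 mM DTT/0.02% Tween-20/0.1% BSA, preincubated 5 min RT with compound; 0.125 microM importin beta added, 45 min RT, CFP/YFP FRET ratio read.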
GLA inh pH 4.5 – blocks human alpha-galactosidase A at pH 4.5. P06280. purified enzyme, 4-MU-alpha-Gal fluorescence, pH 4.5. activity change, negative = inhibition, % at 105 µM. 230,000 tested, under 10 active; inconclusive = small, poorly fitted or top-dose-only inhibition, or a rising curve; inactive = flat fitted curve, though single readings scatter; no compound was filed as active;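 note: 0% = full activity with enzyme and -100% = basal without enzyme; dose as in the result columns while the protocol names 77 µM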
Rango dissoc inh – prevents RanGTP from dissociating the Rango-importin beta complex; 340,000 compounds, 0.071% hits; AID 540253; Biochemical FRET Rango-importin beta, RanGTP-induced dissociation; Potency, µM (titrated, usually from 46.1 µM), without a hit: top-dose activity change, negative = inhibition; O95149+P62826; active means falling FRET ratio curve, often poorly fitted, with flat reads before Ran was added; inconclusive means other falling curves, or compound fluorescence or quenching; inactive means flat or rising ratio curve;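 note: potency is the fitted concentration of half-maximal effect; % of control where 0% means no effect; nearly all actives have a fitted effect of over 45% in size; -100% = wells without RanGTP and RCC1; the record marks most hits as doubtful in a second field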
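Rango/importin beta premix (0.1/0.25 uM final), PBS + 1 mM DTT + 0.02% Tween-20 + 0.1% BSA; cpd 5 min RT; FRET pre-read; + RanGTP-RCC1 (0.6 uM Ran, 2 mM GTP, 0.2 uM RCC1); 45 min RT; FRET post-read, ex 430, em 486/530 nm.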
The depositor's hits bear a star; ? = inconclusive; · = no result given; & = joins results of further samples.

SMILES | miR-21 reporter | Rango complex inh | GLA inh pH 4.5 | Rango dissoc inh
C(=N\Nc1nn[nH]n1)/c1ccccc1 | 1.0% | 1.9% | -2.5 | -6.9%
CSc1ncc(C(=O)Nc2ccccc2C)c(C)n1 | -1.2% | 2.6% | · | 0.8%
Cc1[nH][nH]c(=O)c1C(c1c(C)[nH][nH]c1=O)c1cn(C)c2ccccc12 | -8.6% | 6.1% | -6.2 | -12.3%
CCOC(=O)c1cnc(Nc2nc3ccccc3o2)nc1CSC(=S)N(CC)CC | -14.7% | -0.5% | 0.4 | 1.4%
CCOc1ccc(NC(=S)N2C3CCCC2CC(NC(=O)C2CC2)C3)cc1 (stereo unspecified) | 5.2% | -1.9% | · | -7.6%
O=C(NC1CCCCC1)OCCN1CCN(Cc2ccccc2)CCC1=O | 1.7% | · | 5.8 | ·
NC1=NC[C@@H](Cc2ccc(O)cc2)N1CC1CCCCC1 | -2.7% | 1.1% | 3.3 | 15.2%
CCOc1ccccc1C(=O)NC(C(=O)Nc1cccc(S(N)(=O)=O)c1)C(C)C (stereo unspecified) | -3.4% | -1.5% | -1.1 | -1.4%
CCc1cccc2c(=O)c(C(=O)NCCN3CCOCC3)c[nH]c12 | -1.6% | 1.9% | 0.4 | -2.4%
CCOc1ccccc1NC(=O)Nc1ccncc1 | 2.2% | 0.0% | · | 0.6%

Random excerpt: 2 compounds from above, in no set order.
SMILES | miR-21 reporter | Rango complex inh | GLA inh pH 4.5 | Rango dissoc inh
CCOc1ccccc1NC(=O)Nc1ccncc1 | 2.2% | 0.0% | · | 0.6%
CSc1ncc(C(=O)Nc2ccccc2C)c(C)n1 | -1.2% | 2.6% | · | 0.8%

Other entries
SMILES | miR-21 reporter | Rango complex inh | GLA inh pH 4.5 | Rango dissoc inh
O=C(NCc1ccccc1)/C(=C/c1ccccc1)NC(=O)c1ccco1 | 0.1% | 0.1% | · | 24.9%
COc1ccc(N(C)C(=O)Cn2c(=O)oc3ccccc32)c(OC)c1 | -4.1% | 1.0% | · | ?
CC1CCN(C(=O)c2[nH]cnc2C(=O)NCCCCCNC(=O)OC(C)(C)C)CC1 | · | -3.4% | · | 0.6%
COc1ccc(-c2cc(C)no2)cc1S(=O)(=O)N(C)c1ccc(C)cc1 | 18.6% | -0.6% | · | 29.5%
CCC(=O)N1CCN(c2ccccc2NC(=O)c2ccc(OC)c(Cl)c2)CC1 | 0.3% | 2.8% | -5.1 | -5.1%
COc1ccc(NC(=O)N2CCC(c3nc(-c4cccs4)no3)CC2)cc1 | -1.0% | 0.0% | 0.4 | 2.9%
O=C(NCc1ccccc1)C(=O)NCC(c1ccco1)N1CCN(c2ccccc2F)CC1 (stereo unspecified) | 18.8% | 3.1% | 1.5 | 2.8%
COc1ccc([C@H]2CC(=O)C=C(c3ccc(OC)c(F)c3)C2)cc1 | · | ? | · | 18.6%
CC(=O)c1cccc(NC(=O)CCCCCn2nnc3ccccc3c2=O)c1 | 6.8% | 0.2% | · | -12.3%
CCN(CC)C(=O)Cn1cc(/C=C(\C#N)C(=O)NC2CC2)c2ccccc21 | 0.6% | ? | · | -5.1%
CN(CC(=O)Nc1ccc(N2CCOCC2)cc1)C(=O)c1cn(-c2ccccc2)nc1-c1ccccc1 | · | ? | · | 13.5%
Cc1onc(-c2ccccc2)c1C(=O)NCC(=O)Nc1cc(Cl)ccc1Cl | · | ? | · | -5.3%
O=[N+]([O-])c1ccc(Cl)c(CN2CCSCC2)c1 | -10.9% | 3.8% | 2.0 | 7.0%
O=C(Cn1cc([N+](=O)[O-])cn1)Nc1ccccn1 | -4.8% | -1.1% | 3.8 | 10.1%
O=C(CCCn1c(=O)oc2ccccc21)N1CCN(c2ccccn2)CC1 | -42.6% | -4.3% | · | -11.8%
CCOC(=O)c1c(C)noc1-c1ccco1 | 2.4% | 0.3% | -0.3 | 12.8%
CCCN(CCC)S(=O)(=O)c1ccc(C(=O)N2CCC(=O)c3ccccc32)cc1 | -0.8% | -3.4% | -5.1 | 0.0%
COc1cccc(-c2cc3nc(-c4ccccc4)cc(=O)n3[nH]2)c1 | -2.9% | ? | · | -8.9%
CCc1ccc(NC(=O)c2ccc(C3SCC(=O)N3CCc3ccccc3)cc2)cc1 (stereo unspecified) | 25.3% | 6.5% | -15.4 | -8.6%
COc1ccccc1CCNC(=O)c1cnccn1 | -11.1% | 0.2% | 3.5 | -8.8%
CC(=O)Nc1ccc([N+](=O)[O-])c(CS(=O)(=O)c2ccc(C)cc2)c1[N+](=O)[O-] | 2.6% | -1.3% | · | 9.7%
COc1cc(C(c2c(C)[nH][nH]c2=O)c2c(C)[nH][nH]c2=O)ccc1OCc1ccc([N+](=O)[O-])cc1 | -45.3% | 3.8% | -7.3 | 0.3%
Cc1ccc(CN=C2NC(=O)C(CC(=O)NCCc3ccccc3)S2)cc1 (stereo unspecified) | -0.1% | · | 10.1 | ·
O=C(Nc1nc(-c2ccc(S(=O)(=O)N3CCCC3)cc2)cs1)C1COc2ccccc2O1 (stereo unspecified) | 24.0% | -0.2% | -6.2 | 0.0%
COc1c(N)c2ccccc2[nH]c1=O | -18.2% | 0.0% | 9.9 | 0.3%
CCN1CCN(C(=O)CN(CC)S(=O)(=O)c2ccc(Cl)cc2)CC1 | -8.0% | 4.0% | 8.7 | 8.7%
COc1ccc(C2=COc3ccccc3C(=O)N2)cc1 | -36.1% | 0.7% | -11.3 | 6.4%
CC1(C(=O)O)COC(c2ccc([N+](=O)[O-])cc2)OC1 (stereo unspecified) | -1.7% | -2.6% | 1.8 | -7.1%
COc1cc2c(cc1O)CC[C@@H]1[C@@H]2CC[C@]2(C)[C@@H](O)CC[C@@H]12 | 13.7% | -5.7% | -12.6 | 15.7%
CCN(CC)CCNCc1cc(Br)ccc1OCC(=O)NCc1ccccc1 | -7.1% | -5.3% | 5.0 | 2.3%

Continued; the last two above are carried over.
SMILES | miR-21 reporter | Rango complex inh | GLA inh pH 4.5 | Rango dissoc inh
COc1cc2c(cc1O)CC[C@@H]1[C@@H]2CC[C@]2(C)[C@@H](O)CC[C@@H]12 | 13.7% | -5.7% | -12.6 | 15.7%
CCN(CC)CCNCc1cc(Br)ccc1OCC(=O)NCc1ccccc1 | -7.1% | -5.3% | 5.0 | 2.3%
CCc1ccc(NC(=O)Cn2nc(C)c([N+](=O)[O-])c2C)cc1 | -4.6% | -0.2% | 1.2 | 19.2%
Cc1ccc(NC(=O)CSCC(=O)N(C)Cc2ccc(Cl)c(Cl)c2)cc1 | · | -1.5% | · | 0.0%
CN1C(=O)CC(c2ccccc2)C1=O (stereo unspecified) | · | ? | · | -3.6%
CCN(CC(=O)Nc1ccc(C)c(F)c1)CC(=O)NC(C)C | -6.2% | -0.1% | 6.0 | -11.8%
C=CCN1c2ccccc2[C@]23C[C@@H](C(=O)OC)N(C(C)=O)C2=NC(C(=O)OC)=C(C(=O)OC)[C@H]13 | 2.1% | 2.5% | 11.8&-7.5 | -1.1%
O=C(NCCCN1CCOCC1)c1cc(-c2ccco2)nc2ccccc12 | · | -2.3% | · | 0.8%
CC(=O)NN1C(=O)/C(=C\c2ccc(O)cc2)SC1=S | 1.9% | ? | -1.8 | -20.2%
CCN(CC)C(=O)CN(C)S(=O)(=O)c1cccc2nsnc12 | 4.4% | 0.7% | -0.5 | -1.6%
Cc1ccc(-c2ccc(=O)n(CC(=O)Nc3cccc(C(=O)N4CCN(C)CC4)c3)n2)cc1 | -8.1% | 0.9% | -0.9 | -7.0%
Cc1ccc(S(=O)(=O)N(C)C)cc1NC(=O)Nc1ccccc1F | 0.6% | 2.5% | 0.9 | 11.3%
O=C(COC(=O)c1c2ccccc2cc2ccccc12)Nc1ncc(C(F)(F)F)cc1Cl | -3.5% | ? | -7.5 | -27.0%
COC1C/C(=N\O)C2OC(c3ccccc3)OCC2O1 (stereo unspecified) | -0.5% | -1.9% | 0.3 | 4.9%
COc1ccc(OCc2cccc(C(=O)Nc3cc(C)on3)c2)cc1 | -59.6% | -1.3% | 1.2 | 12.8%
CCN(CC)CCN(Cc1cc2cc3c(cc2[nH]c1=O)OCCO3)C(=S)NC | 0.2% | -3.8% | · | 1.6%
O=C(O)COc1ccc(S(=O)(=O)N2CCCC2)cc1 | 2.2% | -3.9% | · | 1.2%
COc1ccc(-c2csc(N(CC3CCCO3)C(=O)c3ccc(C)cc3)n2)cc1 (stereo unspecified) | -5.0% | -3.8% | -4.2 | -3.8%
C(=NN=C1c2ccccc2-c2ccccc21)c1ccc2c(c1)OCO2 | · | 1.7% | · | 15.0%
Cc1nc(N/C(N)=N/S(=O)(=O)c2ccc([N+](=O)[O-])cc2)nc2ccccc12 | -1.3% | 0.1% | -12.5 | 3.4%
CCOC(=O)C(=O)NN=C(c1ccccc1)c1ccccc1 | -7.1% | -1.5% | -4.2 | -0.2%
CCOC(=O)c1c(NC(=O)Cn2c(C)nc3ccccc32)sc2c1CCC2 | -2.8% | -0.9% | 4.6 | -7.1%
Cc1ccc(S(=O)(=O)NCC(=O)N2CCC(C)CC2)cc1 | -4.1% | -0.5% | -10.4 | 7.9%
O=C(CSc1nnc(-c2ccc3c(c2)OCCO3)o1)NC1CCCCC1 | -4.3% | · | 2.6 | ·
Cc1ccc(NC(=O)c2cnc(SCC(=O)NCC3CCCO3)n(C)c2=O)cc1C (stereo unspecified) | · | -0.1% | · | -4.4%
CC(C(=O)NCCN1CCOCC1)c1ccc([N+](=O)[O-])cc1 (stereo unspecified) | -1.4% | -0.4% | 1.2 | -13.0%
COc1cc(NC(=O)c2cccs2)c(OC)cc1NC(=O)CCC(=O)Nc1ccc2ncccc2c1 | 13.6% | ? | -5.6 | -5.7%
CC(OC(=O)/C=C/c1ccco1)C(=O)NC1CCCCC1C (stereo unspecified) | · | -0.5% | · | 1.4%
COc1cnc(-c2ccccc2)c(-c2ccccc2)n1 | · | -5.4% | · | -6.1%
CCCSc1ccc([C@H]2N[C@@](Cc3ccccc3)(C(=O)OC)[C@H]3C(=O)N(CC)C(=O)[C@@H]23)cc1 | · | ? | · | -12.3%
O=C(CSc1nnc2ccccn12)N1CCc2ccccc2C1 | -35.7% | -0.8% | -29.6 | 1.8%
CC1=NC(C#N)=C(C#N)NC(C)(C)C1 | 0.2% | 0.4% | -10.4 | 4.7%
Cc1nc2ccccc2n1CC(O)COC1CCCCC1 (stereo unspecified) | 1.0% | 1.8% | -2.9 | -2.0%
Cc1cc2c(cc1C)CSC(c1ccccc1OC(=O)C(C)(C)C)SC2 | -0.4% | -3.5% | -9.1 | 12.2%
OC(CNCC1CCCO1)Cn1c2ccc(Br)cc2c2cc(Br)ccc21 (stereo unspecified) | ? | -0.1% | -11.6 | 14.2%
CN(C)C(=O)C#Cc1ccccc1 | -4.1% | -0.9% | 0.9 | -14.1%
COc1cccc(C(=O)Oc2ccc(/C=N/NC(=O)c3ccncc3)cc2OC)c1 | 3.0% | 0.3% | · | 7.2%
Cc1ccc(C(=O)NCC(=O)NCC(=O)OCC(=O)c2ccc([N+](=O)[O-])cc2)cc1 | -3.3% | -3.2% | 3.4 | -3.5%
Nc1ccc(C2CCCc3nonc32)c2nonc12 (stereo unspecified) | -18.3% | 5.6% | 2.3 | -3.1%
CC1CC(C)CN(S(=O)(=O)c2cccc(C(=O)OCCN3CCCC3=O)c2)C1 (stereo unspecified) | -0.5% | -1.8% | 3.3 | 1.3%
CN(C(=O)CCc1nc2ccccc2c(=O)[nH]1)C1CCS(=O)(=O)C1 (stereo unspecified) | · | ? | · | -11.6%
CCOc1ccc(NC(=O)CN(C)CC(=O)Nc2cc(Cl)ccc2C#N)cc1OCC | -1.5% | -3.0% | 1.1 | -1.1%
CCC(=O)Nc1nnc(-c2ccncc2)s1 | -4.0% | 0.2% | 5.9 | -1.9%
Cc1ccc(S(=O)(=O)N2CCCCC2C(=O)N(C)c2ccccc2)cc1 (stereo unspecified) | -0.2% | -0.4% | · | -25.6%
O=C(CCNC(=O)c1ccccc1Cl)NCC(c1ccco1)N1CCCC1 (stereo unspecified) | · | -4.5% | · | ?

Some of the compounds tested (hit frequency here may not be typical).
